Source: PubChem
Calb FLC: C. albicans growth inhibition with fluconazole, primary screen, CaCi-2 strain, Alamar Blue fluorescence; 0.57% of 300,000 active; AID 1979, 2009; growth inhibition, % (no concentration beside the values); C. albicans CaCi-2 (fluconazole-resistant clinical isolate) + fluconazole, 48 h;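 active = most replicates above 75%; inconclusive = exactly half above 75%; inactive = most below 75%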;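 also: all wells also contain fluconazole at 8 µg/ml as a sub-toxic cotreatment; 0% = median of DMSO wells and 100% = median of geldanamycin control wells; wells of about 8 µL received 7.5 nL stock; the first replicate is given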
Beta cell apopt: inhibitors of cytokine-induced beta cell apoptosis, primary screen, luminescence; protection from apoptosis, % (test concentration not listed); 0.8% of 300,000 active; INS-1E cytokine-induced death, ATP luminescence, 48 h; percent of positive-control rescue, neutral wells zero; AID 435005, 2010;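 active = all replicates at 75% or more, or half of them and the mean; inconclusive = half reach 75% but not the mean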;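 also: 0% = cytokine-treated negative control wells and 100% = positive control rescue; higher means more ATP so stronger rescue from cytokine killing; wells of about 40 µL received 100 nL stock; the first replicate is given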
Beta2AR agonist: beta2AR agonists driving receptor internalization, primary screen, cell-based, FAP fluorogen, flow cytometry; Beta-2 adrenergic receptor (Homo sapiens), P07550; Am2.2-beta2AR cells; reference of the scale not given here; response, % (concentration not given with the values); 0.43% of 340,000 active; AID 504454, 2011;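 active = response above a set limit, near 3 SD of response in nonfluorescent compounds, cut at about 42% in these data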;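 also: stock transfer was 100 nL into about 11 µL; a reference agonist was the positive control; negative values mostly stem from fluorescent compounds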
RanGTP-Imp inh: inhibitors of RanGTP-importin-beta interaction, primary screen, biochemical, FRET, CFP-Ran, YFP-importin-beta, homogeneous; inhibition, % (concentration not given with the values); cell-free CFP-Ran/YFP-importin-beta FRET ratio; 1.1% of 300,000 active; AID 2216, 2009;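 active = most replicates above 15%; inconclusive = exactly half above 15%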;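 also: 0% = DMSO wells and 100% = Ran loaded with GDP instead of GTP; wells of about 40 µL received 100 nL stock; the first replicate is given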
T cruzi inh: inhibitors of intracellular T. cruzi growth, primary screen, luminescence, NIH3T3 host cells; T. cruzi beta-gal in NIH3T3, 90 h; inhibition, % (no concentration beside the values); 1.4% of 300,000 active;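 active = mean inhibition across valid replicates above about 55%, limit read from the data; inconclusive = mean below that limit but half or more replicates reach it; inactive = mean below it, under half of replicates reach it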;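 also: signal also drops with host cell toxicity which is not excluded here; 0% = plate median of DMSO wells and 100% = zero luminescence signal; higher percent means less beta-gal luminescence so fewer parasites; stock transfer was 50 nL into about 50 µL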
Bfl-1 A1 inh: caspase 3/7 activation in MEF A1-2A-BIM cells, primary screen, A1 inhibitor project, cell-based, luminescence, HTS; Caspase-Glo 3/7 luminescence, 3 h; percent of clofoctol response, vehicle zero; caspase activation, % (concentration not given with the values); 0.066% of 330,000 active;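 active = over half of replicate activation scores above 10%, or exactly half above 10 with the replicate mean above 10; inconclusive = replicate mean below 10 yet half the replicates above 10; inactive = over half of replicates below 10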;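 also: wells of about 30 µL received 50 nL stock; many hits fall short of the cut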
UCH37 DUB inh: inhibitors of human UCH37 deubiquitinase, primary screen, biochemical, Ub-AMC cleavage, fluorescence | Ubiquitin carboxyl-terminal hydrolase isozyme L5 (Homo sapiens), Q9Y5K5 | purified proteasome/UCH37 | inhibition, % (concentration not given with the values) | 0.33% of 330,000 active;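 active = mean of two replicates above 20%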;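 also: 0% = compound-free wells with enzyme and 100% = wells lacking proteasome; stock transfer was 100 nL into about 20 µL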
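Reagent: Ub-AMC substrate; assay system: Proteasome-associated human UCH37 deubiquitinase; controls: no-proteasome and no-compound wells; read-out: % inhibition of Ub-AMC cleavage fluorescence; timing: 30 min preincubation with enzyme, 25 min cleavage at room temperature; signal: AMC fluorescence from Ub-AMC cleavage, excitation 355 nm, emission 460 nm; buffer or medium: Tris-HCl pH 7.4 plus ovalbumin, ATP-MgCl2, DTT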
LANA-H2B inh: blockers of LANA interaction with H2A/H2B – biochemical, FP readout, HTS, primary screen | Protein LANA1 (Human herpesvirus 8 type P (isolate GK18)), Q9QR71 | cell-free LANA-H2A/H2B peptide, fluorescence polarization | inhibition, % (test concentration not listed) | 0.6% of 320,000 active | AID 2629, 2010; in the data active = inhibition mostly above about 10%, no sharp cut-off; inactive = mostly below about 6.7%;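 also: stock transfer was 7.5 nL into about 10 µL; 0% = median of vehicle wells and 100% = median of positive control wells; one replicate is shown; the record names a cut of 25% in any replicate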
Target sequence (Q9QR71 whole entry, looked up): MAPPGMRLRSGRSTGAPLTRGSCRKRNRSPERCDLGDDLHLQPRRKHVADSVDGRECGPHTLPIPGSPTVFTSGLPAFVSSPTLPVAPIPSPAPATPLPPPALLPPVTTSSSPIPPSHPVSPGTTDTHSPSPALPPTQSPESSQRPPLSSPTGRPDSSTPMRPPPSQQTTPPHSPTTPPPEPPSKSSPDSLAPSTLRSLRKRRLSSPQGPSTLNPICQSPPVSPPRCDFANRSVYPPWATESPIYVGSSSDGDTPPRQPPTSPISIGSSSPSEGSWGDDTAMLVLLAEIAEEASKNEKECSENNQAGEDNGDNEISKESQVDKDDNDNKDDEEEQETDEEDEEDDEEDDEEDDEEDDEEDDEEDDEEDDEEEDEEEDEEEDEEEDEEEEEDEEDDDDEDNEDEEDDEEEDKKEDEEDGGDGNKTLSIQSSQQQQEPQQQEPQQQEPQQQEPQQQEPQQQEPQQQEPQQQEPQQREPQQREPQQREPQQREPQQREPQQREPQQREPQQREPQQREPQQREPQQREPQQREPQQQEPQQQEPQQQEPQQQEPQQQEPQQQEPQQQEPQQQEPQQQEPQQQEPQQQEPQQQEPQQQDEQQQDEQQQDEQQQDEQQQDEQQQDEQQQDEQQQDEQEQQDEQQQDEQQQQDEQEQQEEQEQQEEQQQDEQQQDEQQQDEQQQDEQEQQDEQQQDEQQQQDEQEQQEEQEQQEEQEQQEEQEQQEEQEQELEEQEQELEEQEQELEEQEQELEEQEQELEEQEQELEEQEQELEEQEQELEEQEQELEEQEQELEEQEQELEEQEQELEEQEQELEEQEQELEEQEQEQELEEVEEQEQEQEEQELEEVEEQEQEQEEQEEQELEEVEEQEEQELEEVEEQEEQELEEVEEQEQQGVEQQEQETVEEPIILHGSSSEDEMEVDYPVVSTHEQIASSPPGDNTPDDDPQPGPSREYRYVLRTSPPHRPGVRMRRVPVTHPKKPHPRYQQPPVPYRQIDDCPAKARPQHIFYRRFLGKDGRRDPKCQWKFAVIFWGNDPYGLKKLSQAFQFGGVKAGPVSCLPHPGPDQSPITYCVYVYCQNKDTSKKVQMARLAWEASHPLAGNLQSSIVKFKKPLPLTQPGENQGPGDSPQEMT
Starred values were filed as active, the others as inactive; ? = inconclusive; / = no result given.

SMILES | Calb FLC | Beta cell apopt | Beta2AR agonist | RanGTP-Imp inh | T cruzi inh | Bfl-1 A1 inh | UCH37 DUB inh | LANA-H2B inh
O=C(NCCc1ccc(Cl)cc1)Nc1cccc(Cl)c1 | -13.6 | -5.5 | 11.1 | -3.4 | 31.1 | -0.1 | -0.9 | 3.9
O=C1/C(=C/c2ccncc2)N=C2CCCCCN12 | -3.4 | -7.3 | -0.1 | -1.0 | -15.1 | 0.1 | -23.7 | -1.2
Cc1cc(Cl)ccc1OCC(=O)NC1CCCC1 | -8.2 | -0.5 | 4.4 | -4.4 | 6.9 | 0.0 | 5.9 | -3.9
CCn1cc(Br)c(C(=O)Nc2ccc(C(=O)OC(C)C)cc2)n1 | -15.6 | 10.1 | -14.7 | 0.5 | 29.3 | -1.0 | 4.1 | 1.1
O=C(CSCc1ccc(Cl)cc1)Nc1nccs1 | -10.8 | -0.2 | -3.0 | ? | 10.5 | 0.7 | 1.4 | -1.0
O=C(c1ccc(C#CC2(O)CCCCC2)cc1)N1CCOCC1 | -0.8 | -1.3 | -0.5 | -2.8 | -4.6 | 0.8 | 3.4 | -0.6
O=C(c1cc(=O)c2ccccc2o1)N1CCN(c2ccccc2F)CC1 | -9.3 | -3.0 | -10.5 | 4.3 | -5.6 | 0.5 | 4.8 | 0.5
COc1cccc(NC(=S)N2CCC(c3ccc(C)cc3)C2)c1 (stereo not given) | -16.8 | 15.8 | 0.7 | 2.6 | 24.4 | 0.1 | 7.2 | 1.7
CCOC(=O)C1=C(c2ccccc2)Nc2ncnn2C1c1ccccn1 (stereo not given) | -24.5 | / | 4.8 | 2.2 | -9.3 | 0.2 | 0.9 | 0.5
COc1cc2c(cc1NC(=O)c1ccncc1)oc1ccccc12 | -3.0 | 1.4 | 13.9 | -4.2 | 26.2 | -0.3 | 4.0 | -4.4
COc1ccc(/C=N\NC(=O)c2ccccc2Cl)cc1COc1c(F)c(F)c(F)c(F)c1F | -3.0 | 3.9 | -8.5 | -1.8 | 2.4 | 0.8 | / | 3.5
Cc1ccc(OCC(=O)N(C)CC(=O)Nc2ccc(F)c(F)c2F)cc1 | -6.3 | -0.5 | 6.1 | 3.8 | -13.9 | -0.4 | 4.2 | -4.2
O=C(CC12CC3CC(CC(C3)C1)C2)N/N=C/c1ccc([N+](=O)[O-])o1 | 0.4 | 3.8 | -14.1 | 0.1 | 55.2* | 0.0 | / | 1.1
Cc1nc(NCCc2ccccc2)c2nnn(Cc3ccccc3)c2n1 | 3.2 | -4.6 | -6.5 | 11.0 | 10.2 | -0.1 | -2.5 | 0.2
COc1ccc(Cl)cc1NC(=O)C/C(C)=N/NC(=O)C(=O)NCc1ccccc1 | -4.1 | 2.7 | 1.1 | -1.4 | -7.8 | 1.4 | / | 15.3*
O=[N+]([O-])c1cccc(-c2nc(-c3ccccc3)c(-c3cccs3)[nH]2)c1 | -0.9 | 10.3 | 50.5* | -4.5 | 23.5 | 0.0 | -1.0 | 2.8
CC(NC(=O)CCC(=O)NC(C)c1ccccc1)c1ccccc1 (stereo not given) | -10.7 | 0.8 | 0.9 | 2.4 | -23.1 | 0.0 | 3.1 | 1.3
O=C(c1ccc2c(=O)n(CCc3ccccc3)c(=O)[nH]c2c1)N1CCN(c2ccccc2)CC1 | -8.5 | -6.4 | 11.4 | -3.6 | 18.1 | 1.6 | 3.7 | 3.6
CCSC(=S)Nc1c(C)n(C)n(-c2ccccc2)c1=O | -1.7 | -8.7 | 5.3 | -2.8 | -18.1 | -0.8 | 5.9 | -4.7
COc1cccc(-c2csc(N3CCN(S(=O)(=O)c4ccc(F)cc4)CC3)n2)c1 | 1.2 | -0.2 | 11.0 | 2.8 | 47.5 | -1.2 | 0.5 | 2.7
CCOC(=O)CN1C(=O)COc2ccc(Cl)cc21 | -10.0 | -2.0 | 3.2 | -0.9 | 0.5 | 0.4 | 3.0 | -0.6
CCOC(=O)NC(=O)/C(C#N)=N\Nc1cccc(Cl)c1 | -5.3 | 0.8 | 6.6 | 3.4 | -12.7 | -0.4 | / | -5.0
CCCc1cc(=O)[nH]c2nnc(SCC(=O)Nc3cc(C)on3)n12 | -4.5 | 0.4 | -3.7 | 3.1 | 2.7 | 0.6 | 2.9 | /
Cc1nc(C)c(C(=O)OCC(=O)Nc2cccc(C)c2C)s1 | / | -4.6 | 2.3 | / | / | 0.8 | 2.8 | 8.3
NC(=O)c1cc(S(=O)(=O)Nc2cccc(Cl)c2)cs1 | 0.2 | -1.2 | -7.0 | 1.0 | -11.5 | -0.7 | 0.9 | 2.9
CCOc1cc(/C=N\O)cc(Cl)c1OCC | 7.4 | -5.4 | 4.1 | 5.0 | 2.2 | 0.0 | / | -0.9
COc1cc2[nH]c(=S)nc(NCCCOC(C)C)c2cc1OC | 5.7 | -0.4 | -15.5 | 1.2 | 3.4 | 0.1 | 5.4 | 4.3
Cc1ccc(COC(=O)c2ccc3c(c2)C(=O)N(CCCN2CCOCC2)C3=O)cc1 | 3.3 | -5.0 | -2.4 | 8.1 | 10.5 | 0.5 | 6.8 | -3.6
O=C1CSC(c2c(F)cccc2Cl)N1c1cccc(F)c1 (stereo not given) | -1.1 | -5.0 | -4.1 | 1.5 | -16.6 | -0.7 | 3.2 | -7.1
CCn1c(SC(C)C(=O)Nc2nnc(C)s2)nnc1-c1ccco1 (stereo not given) | 1.1 | -2.4 | 0.1 | -2.6 | -7.6 | -0.3 | 3.3 | -2.3
CC(C)Sc1nc2sc(-c3ccccc3)cc2c(=O)n1N | / | -8.4 | -6.8 | / | / | 0.4 | -5.0 | -4.8
COc1ccc(/C=C/C(=O)Oc2ccc(C=O)cc2OC)cc1 | -10.6 | / | -2.3 | 1.1 | -7.4 | -0.2 | 7.8 | 4.2
CCOC(=O)C1CCCN(C(=S)Nc2ccc(Nc3ccccc3)cc2)C1 (stereo not given) | -10.5 | -4.1 | -1.6 | 0.0 | 23.1 | 0.5 | 2.2 | 0.3
O=C(Nc1ccccc1)N1CCCC2CCCCC21 (stereo not given) | -4.5 | 5.1 | 1.6 | ? | 12.0 | -2.5 | 0.3 | -4.2
CC(C)(C)[C@@H]1C=C(C(=O)N2CCOCC2)O[C@H](OCc2ccc(CO)cc2)C1 | -63.2 | -0.9 | 2.2 | 0.3 | -3.0 | -0.2 | -1.1 | -2.8
O=c1oc2ccccc2c(Nc2ccc(Cl)cc2)c1[N+](=O)[O-] | 15.5 | 31.5 | 6.0 | -0.5 | -7.1 | 0.3 | 5.7 | 11.8
Cn1c(CCCNC(=O)c2ccccc2)nc2ccccc21 | -21.6 | 1.5 | -10.4 | -0.1 | -7.2 | -0.2 | 3.3 | 10.4
CC(C(=O)OCC(=O)c1c(N)n(C)c(=O)n(C)c1=O)N1C(=O)c2ccccc2C1=O (stereo not given) | -3.5 | -8.3 | -1.0 | 4.4 | 1.5 | 0.2 | 1.1 | -3.7
Cc1ccc(S(=O)(=O)N2CCN(C(=O)CC(C)n3cncn3)CC2)cc1C (stereo not given) | -6.8 | -3.5 | -1.0 | -2.8 | -6.3 | 1.7 | 4.8 | 25.2*
Cn1c(=O)oc2cc(S(=O)(=O)N3CCN(C(=O)c4ccco4)CC3)ccc21 | 5.7 | / | -230.8 | -9.9 | -5.8 | -0.1 | 4.8 | 6.5
COCC(C)n1c(SCc2cc(=O)n3cc(C)ccc3n2)nc2ccccc2c1=O (stereo not given) | 16.0 | 1.8 | -16.3 | 6.2 | 6.1 | 0.2 | -17.4 | 1.0
Nc1nn(S(=O)(=O)c2cccc3nsnc23)cc1-c1ccc(Br)cc1 | 19.1 | 7.7 | 4.2 | -3.9 | 5.6 | -0.4 | 2.4 | 2.9
CCCCN(Cc1ccco1)S(=O)(=O)c1ccc(-c2ccc(=O)[nH]n2)s1 | 5.6 | 0.0 | 8.3 | -0.1 | 10.0 | 0.3 | 2.9 | 6.3
O=C(NC1CCCC1)c1nc2c(nnn2Cc2ccccc2Cl)c(=O)[nH]1 | 52.6 | 0.9 | -6.4 | 1.3 | 34.6 | 0.0 | 7.5 | 7.6
CCCCN(C(=O)COC(=O)c1nc2nccc(C)n2n1)C1CCS(=O)(=O)C1 (stereo not given) | / | -2.3 | 2.0 | / | / | -0.1 | 4.2 | 4.8
Cc1occc(=O)c1OCc1ccccc1 | 4.6 | -4.7 | 2.6 | 0.3 | -6.0 | 0.2 | -1.0 | 2.4
O=C1C(NS(=O)(=O)c2cccs2)=C(N2CCN(c3ccccc3)CC2)C(=O)c2ccccc21 | 24.8 | 3.1 | -6.5 | -4.1 | 28.0 | 0.1 | 5.1 | -3.2
N#Cc1ccc(Oc2cnccn2)cc1 | 11.5 | -1.9 | -3.9 | 26.7* | -18.6 | -1.4 | 0.5 | -3.2
CCOC(=O)c1nn(-c2cccc(Cl)c2)c2nc(CC(C)C)c(C#N)c(=O)n12 | -12.8 | 2.6 | -11.9 | -4.9 | 11.1 | -0.3 | -29.8 | 4.8
COCc1cc(C)nc2sc(C(=O)N3CCN(c4ccccc4)CC3)c(N)c12 | 4.9 | -0.8 | 11.3 | -1.4 | 5.0 | 0.3 | -12.3 | -6.5
C(=N\N1CCOCC1)/c1cccs1 | 0.2 | 2.5 | -4.0 | 2.2 | 7.8 | -0.1 | / | 3.2
COc1ccc(OC)c(S(=O)(=O)N2CCC(C(=O)NC3CCCC3)CC2)c1 | -8.5 | -1.0 | 3.8 | -0.3 | -12.2 | 0.7 | 1.7 | 0.4
CCOc1ccc2ncc(S(=O)(=O)c3ccc(C)cc3)c(N3CCC4(CC3)OCCO4)c2c1 | -1.0 | -2.4 | 19.8 | ? | 30.3 | -0.2 | 2.9 | 3.7
CCOC(=O)Cc1csc(NC(=O)c2cccnc2)n1 | -1.4 | -0.2 | -1.0 | 9.5 | -4.3 | -0.3 | 3.6 | -0.7
COc1ccc(OC)c2sc(NNC(=O)COc3ccccc3)nc12 | -17.2 | -1.2 | -3.5 | -3.0 | -4.6 | 0.3 | 1.7 | 5.9
Cc1cc2oc(=O)cc(CSc3nnc(C)n3N)c2cc1C(C)C | -2.3 | -9.3 | 1.5 | 2.8 | -2.4 | 0.1 | 4.7 | -1.1
CCN(C(=O)c1ccc(NC(=O)Cc2ccccc2)cc1)c1ccccc1 | 19.6 | -2.7 | 6.1 | 1.4 | -2.6 | -1.7 | 0.8 | 2.9
